# SmPrx2 inh: Schistosoma mansoni Prx2 inhibition; S. mansoni Prx2 activity coupled to TGR/GSH (TGR is thioredoxin glutathione reductase), NADPH fluorescence loss, qHTS; some inactives read as strong as hits; Potency, µM; actives 0.07% (n = 65,000); active means full or partial inhibition curve with a strong effect at the top dose; inconclusive means weaker partial or single-point curve; inactive means no accepted curve; note: series up to 57 µM; many of its hits are not listed in these tables
#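 qHTS, coupled TGR/Prx2 format; 15 min compound preincubation at RT; reaction started with H2O2 (2.5 mM aliquot); kinetic NADPH fluorescence decrease, ex 365/em 450 nm.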
# LT uptake inh: anthrax lethal toxin internalization inhibition. Cells, anthrax lethal toxin internalization, FRET ratio (460/530). Potency, µM (top dose mostly 40 µM), for the others: at the highest dose activity change, negative = inhibition, hits mostly inhibitors. actives 0.67% (n = 70,000). AID 912; active = well fitted falling ratio curve with the 530 nm signal flat; inconclusive = other ratio curves, or a change in one channel alone; inactive = flat curves in the ratio and both channels; the % refers to the ratio; note: % is set by controls: 0 for no effect and ±100 for the full control effect; nearly all actives have a fitted effect of over 50% in size; tested in ME-180 cells; beta-lactamase reporter
# Starred values were filed as active, the others as inactive; u = inconclusive; x = no result given; & = joins results of further samples; [ ] = dose if it differs, or a comment. Potency is the fitted concentration of half-maximal effect. The list is partial. The share of hits here may be higher or lower than overall.
# Below each compound: LT uptake inh	SmPrx2 inh
- N=c1sccn1CC(=O)Nc1ccccc1-c1ccccc1
 : -17%	>57
- Cc1cc(C)c2c(n1)SCC(=O)N2CC(=O)NCCC1=CCCCC1
 : -3%	>57
- O=C1CSC(=Nc2cc(Cl)ccc2Cl)N1
 : u	>57
- CC1=CC(=O)CC(C)(C)C1(O)/C=C/C(C)=C\C(=O)O (configuration not stated)
 : 1%	x
- COc1ccccc1OCCn1c(CO)nc2ccccc21
 : 7%	>57
- COc1ccc(NC(=O)N2CC[C@@]3(CCCN(S(C)(=O)=O)C3)C2)cc1
 : 1%	>57
- O=C(NCCCN1CCOCC1)c1cc(-c2ccc(Cl)cc2)on1
 : 3%	>57
- C[C@@](N)(C(=O)O)c1ccc(P(=O)(O)O)cc1
 : -8%	>57
- COC(=O)c1ccc(CSCC(=O)Nc2cc(OC)cc(OC)c2)o1
 : 2%	>57
- O=C(O)c1cc2c(ccc3ccccc32)[nH]1
 : 9%	>57
- CCc1ccccc1O
 : -3%	x
- COc1ccc(C2C(C(C)=O)=C(C)N=c3s/c(=C\c4cc(C)n(C)c4C)c(=O)n32)c(OC)c1 (configuration not stated)
 : u	u
- CCOC(=O)c1c(NC(=O)c2ccc(Cl)s2)sc(C)c1C
 : -17%	>57
- Cc1ccc(C)c(NC(=O)c2ccccc2O)c1
 : u	>57
- Cc1cc(NC(=O)c2cc(-c3ccccc3)on2)n(-c2ccccc2)n1
 : -2%	>57
- O=C(Oc1ccc2c(c1)OCO2)c1ccc(Br)c(S(=O)(=O)N2CCOCC2)c1
 : u	>57
- O=C(CC(c1ccccc1O)N1CCCCC1)N1CCCCC1 (configuration not stated)
 : -13%	x
- CCOc1ccc2[nH]c(=O)c(CN(CCOC)C(=O)N3CCOCC3)cc2c1
 : -19%	>57
- COC(=O)c1ccc(S(=O)(=O)NCc2cccc(OC)c2)n1C
 : 15%	>57
- COC(=O)CSc1nc2cc3c(cc2cc1C#N)OCO3
 : -8%	>57
- Cc1ccc(-c2nc(CSCC(=O)NCCN3CCN(Cc4ccccc4)CC3)c(C)o2)cc1
 : -8%	>57
- CCOC(=O)C1=C(C)NC(=O)NC1c1cccnc1 (configuration not stated)
 : -27%	>57
- CC1CCCCC1NC(=O)c1cc2c(s1)CS(=O)(=O)C2 (configuration not stated)
 : 0%	>57
- Cc1cccc(NC(=O)CSc2nnc(CCCCCNC(=O)OC(C)(C)C)o2)c1C
 : 2%	>57
- COC(=O)C(F)(F)Sc1c(C)[nH]c2ccccc12
 : 0%	>57
- COC(=O)CNC(=O)C1(CC(C)C)C=CCN1C(C)=O (configuration not stated)
 : -7%	x
- O=C(Cn1cnc2ccccc2c1=O)Nc1ccc2c(c1)OCCO2
 : -1%	>57
- CC(C)(C)NC(=O)C(OC(=O)Cn1nnc(-c2ccc(F)cc2)n1)c1ccncc1 (configuration not stated)
 : -5%	>57
- O=c1sc2ccccc2n1CCOc1ccccc1
 : -21%	>57
- CCOC(=O)Cc1cc(=O)n2[nH]c(C)c(-c3ccccc3)c2n1
 : 0%	>57

# Entries of single compounds, looked up by structure. Order of screens: LT uptake inh, SmPrx2 inh
# `COC(=O)c1ccc(S(=O)(=O)NCc2cccc(OC)c2)n1C` is entered as 15%, >57
# `O=C(NCCCN1CCOCC1)c1cc(-c2ccc(Cl)cc2)on1` is entered as 3%, >57
# `COC(=O)C(F)(F)Sc1c(C)[nH]c2ccccc12` is entered as 0%, >57
# `CC1=CC(=O)CC(C)(C)C1(O)/C=C/C(C)=C\C(=O)O` (configuration not stated) is entered as 1%, x

# The main list resumes, starting two compounds before the break.
# Below each compound: LT uptake inh	SmPrx2 inh
- O=c1sc2ccccc2n1CCOc1ccccc1
 : -21%	>57
- CCOC(=O)Cc1cc(=O)n2[nH]c(C)c(-c3ccccc3)c2n1
 : 0%	>57
- CC(=O)Nc1ccc(S(=O)(=O)N2CCCC2C(=O)O)cc1 (configuration not stated)
 : u	>57
- Cc1cc(=O)n2ncnc2n1COCCO
 : -3%	x
- COc1ccc(C(=O)NCC(c2cccnc2)N2CCN(c3ccc(F)cc3)CC2)cc1OC (configuration not stated)
 : -3%	>57
- COc1oc(-c2ccccc2)nc1C(F)(F)F
 : -9%	>57
- CCN1CCN(Cc2nc3c(c(=O)n(C)c(=O)n3C)n2C(C)C(C)=O)CC1 (configuration not stated)
 : -1%	>57
- Cc1cccc(-c2nc(CN3CCCC(C(=O)NC4CCCC4)C3)c(C)o2)c1 (configuration not stated)
 : -3%	>57
- COc1ccccc1OCCCc1c(C)n[nH]c1C
 : -23%	x
- COC(=O)NC(/C=C/c1ccco1)[C@@]1(C(=O)OC)CCCC1=O (some centres not stated)
 : -7%[8 µM]	x
- CCn1nnc(NC(=O)COc2ccc(C3CCCCC3)cc2)n1
 : 2%	>57
- CC(NC(=O)Cc1cccs1)C(c1cccs1)N1CCOCC1 (configuration not stated)
 : x	>57
- O=C(c1cn[nH]c1)c1cc(F)ccc1O
 : 3%	>57
- COCCCNC(=O)c1c(N)n(-c2ccc3c(c2)OCO3)c2nc3ccccc3nc12
 : 19%	>57
- COc1ccc(C2NC(=O)NC(C)=C2C(=O)Nc2cc(C)ccc2C)cc1OC (configuration not stated)
 : 6%	x
- COc1ccc2[nH]cc(CCNc3ncnc4ccc(-c5ccoc5)cc34)c2c1
 : u	>57
- O=c1[nH]c(CN2CCN(Cc3ccccc3)CC2)nc2sc3c(c12)CCC3
 : -13%	>57
- Cc1ccc(NC(=O)CSc2nnc([C@@H](N)Cc3c[nH]c4ccccc34)o2)c(C)c1
 : u	>57
- c1ccc2c(c1)Nc1ccccc1S2
 : u	x
- O=C(Cn1nnc(-c2ccccc2)n1)N1CCN(S(=O)(=O)c2ccc(Cl)cc2)CC1
 : -8%	>57
- Cc1ccc(S(=O)(=O)N(CC(=O)N2CCC(C(N)=O)CC2)c2cccc(C(F)(F)F)c2)cc1
 : 5%	>57
- Cc1cc(C)nc(SCNC(=O)c2ccccc2)n1
 : -6%	>57
- O=C(NCc1cccnc1)C1c2ccccc2C(=O)N1C1CCCCCCC1 (configuration not stated)
 : 0%	>57
- O=CN1Cc2[nH]c3ccccc3c2N(c2ccc(Cl)cc2)C1=O
 : x	>57
- O=C(Nc1ccc(NC(=O)C23CC4CC(CC(C4)C2)C3)cn1)c1ccco1
 : 11%	>57
- COc1ccc(CN(CCCN2CCOCC2)C(=O)Nc2cccc(Cl)c2)cc1OC
 : 7%	>57
- COc1ccc(C(=O)N(Cc2ccco2)C(C(=O)NC2CCCC2)c2ccc(O)cc2)cc1OC (configuration not stated)
 : -12%	>57
- Cc1cc(NC(=O)CSc2nnc3c4c(C)c(C)sc4ncn23)no1
 : -4%	>57
- Cc1nn(Cc2ccc(Cl)cc2)c(C)c1NC(=O)C1CC=CCC1C(=O)O (configuration not stated)
 : -5%	>57
- COc1cccc(OC)c1OCCNC[C@@H]1COc2ccccc2O1
 : -17%&-9%	>57&>57
- N#CC1=C(N)C(C#N)(C#N)C2(C(=O)Nc3ccccc32)C2CCCC=C12 (configuration not stated)
 : 3%	x
- COc1cc(N=C(N)N=C(N)N)c2ncccc2c1
 : 3%[8 µM]	>57
- CC(C)(C)c1ccc([C@@H](O)CCCN2CCC(C(O)(c3ccccc3)c3ccccc3)CC2)cc1
 : u	>57&>57
- CCc1nccn1S(=O)(=O)c1cc(Br)ccc1OC
 : 1%	>57
- CSc1ncccc1C(=O)OCc1ccccc1F
 : -10%	>57
- O=P(C1=C(N2CCOCC2)/C(=C\c2ccccc2)CC1)(N1CCOCC1)N1CCOCC1
 : 18%	>57
- CCOC(=O)c1sc(NC(=O)COC(=O)c2ccco2)nc1C
 : -5%	x
- CCCn1c(OC)nc2c1c(=O)n(C)c(=O)n2C
 : 4%	>57
- COC(=O)c1ccc(NC(=O)CN2CCN(S(=O)(=O)c3cc(Cl)ccc3OC)CC2)cc1
 : -3%	>57
- O=c1[nH]cnc2c1oc1ccccc12
 : 4%	>57
- Cc1sc2nc(C3CC3)nc(N3CCN(S(=O)(=O)c4ccc(F)cc4)CC3)c2c1C
 : -11%	>57
- COc1ccc(OC)c(NC(=O)CN2C(=O)c3ccccc3S2(=O)=O)c1
 : -14%	>57
- COC(=O)C(NC(=O)c1ccccc1)=C1CCCCC1
 : 7%	>57
- CCOC(=O)C1=C(CS(=O)(=O)c2ccc(F)c(C)c2)NC(=O)NC1c1ccc(O)c(O)c1 (configuration not stated)
 : -8%	>57
- CCCCn1c(C(C)O)nc2ccccc21 (configuration not stated)
 : -18%	>57
- CCCN(CCC)CCNC(=O)Cn1cnc2sc(C)c(S(=O)(=O)N3CCOCC3)c2c1=O
 : -6%	>57
- CC1=CC(=O)C2=C(C)C[C@H](O)[C@@H]3[C@@H](OC(=O)[C@H]3C)[C@H]12
 : u	>57
- NC(=O)CNC(=O)C1CCCc2c1[nH]c1ccc(Cl)cc21 (configuration not stated)
 : 3%	>57
- COCCN1CCn2c(nc3cc(NC(=O)c4ccc(OC)cc4)ccc32)C1
 : -6%	x
- Cc1ccc(CN2C(=O)CCC2C(=O)NC2CCCC2)cc1 (configuration not stated)
 : 10%	>57
- COc1ccc(C2C(C#N)=C(N)N3C(=C2C#N)Sc2ccccc23)cc1 (configuration not stated)
 : -20%	x
- COc1ccc2[nH]c(C(=O)c3ccccc3)cc2c1
 : u	>57
- CCOc1ccccc1/C=C(\C#N)C(N)=O
 : 1%[8 µM]	>57
- O=c1c2ccccc2nnn1Cc1nnc(-c2ccccc2Br)o1
 : 11%	>57
- Nc1nc2c(ncn2COCCO)c(=O)[nH]1
 : -2%[3.58 µM]	>57&>57
- CCCCCCC(=O)Nc1ccc(Cl)cn1
 : 0%	>57
- O=C(CSc1nnc(-c2ccccc2)n1Cc1ccccc1)N1CCOCC1
 : 5%	>57
- O=C(Nc1ccccc1C(=O)NCc1cccnc1)c1ccco1
 : 4%	>57
- CC(C)CC(=O)N1CCN(C(=O)c2cccc(F)c2)CC1
 : 5%	u
- Cc1cc(C(=O)NCC(c2ccco2)N(C)C)no1 (configuration not stated)
 : 1%	>57
- CCCCc1ccc(NC(=O)N[C@H](C(=O)O)C(C)CC)cc1 (some centres not stated)
 : 2%	>57
- CCOc1nc(-c2ccccc2)ccc1-c1noc(-c2cccnc2)n1
 : 13%	>57

# Other results:
# Below each compound: LT uptake inh	SmPrx2 inh
- O=C(CCNS(=O)(=O)c1cccs1)Nc1nccs1
 : 4%	>57
- COc1cccc(C2CC(=O)Nc3cc4c(cc32)OCCO4)c1OC(C)C (configuration not stated)
 : u	>57
- Cc1ccc(NC(=O)c2oc3ccccc3c2NC(=O)c2ccc3c(c2)OCO3)cc1
 : 8%	>57
- COc1ccc(N2Cc3cccc(C(=O)NC(C)CCc4ccco4)c3C2=O)cc1 (configuration not stated)
 : 4%	x
- COc1cc(OC)cc(-c2nc(-c3ccc(Br)cc3)no2)c1
 : 3%	x
- COc1cccc2c1C(=O)c1c(O)c3c(c(O)c1C2=O)C[C@](O)(/C(C)=N\O)C[C@@H]3O[C@H]1C[C@H](N)[C@@H](O)[C@H](C)O1
 : 2%[8 µM]	>57
- COc1ccc(NC(C)=O)cc1NC(C)C(=O)Nc1ccccc1F (configuration not stated)
 : -14%	>57
- CCCSc1nc(C)c(-c2csc(C(C#N)=C3CCCC3)n2)cc1C#N
 : -12%	>57
- Cc1c(Cl)cccc1-n1nnnc1-c1cccs1
 : -12%	>57
- CCCC[C@H]1C[C@@H]1[C@@H]1N(P(=O)(c2ccccc2)c2ccccc2)C[C@@](O)(c2ccccc2)CC12CC2
 : u	>57
- COc1ccccc1N1CCN(C(=O)c2oc3cc(C)c(C)cc3c2C)CC1
 : -8%	>57
- Cc1c(C(=O)c2no[n+]([O-])c2C(=O)c2cnn(C)c2C)cnn1C
 : x	u
- O=C(Oc1ccccc1)N1CCC2(CCCN(c3ncccn3)C2)CC1
 : -22%	>57
- O=C(CCN1C(=O)c2ccccc2C1=O)Nc1sc2c(c1C(=O)NCc1ccco1)CCCC2
 : -28%	>57
- O=C(NCCO[N+](=O)[O-])c1cccnc1
 : u	>57
- CCOC(=O)c1cc2oc(C)cc2n1CC(=O)OC1CCCCC1
 : u	>57
- Cc1ccc2nc(-c3ccccn3)cc(C(=O)N3CCN(c4ncccn4)CC3)c2c1
 : 3%	>57
- CC(C(=O)NC(=O)NC1CCCCC1)N1CCN(c2ccccn2)CC1 (configuration not stated)
 : 7%	>57
- Cc1cc(=O)oc2cc(OC(C)C(=O)N3CCCc4ccccc43)ccc12 (configuration not stated)
 : x	>57
- Cc1ccnc(N2C(=O)c3ccccc3C2Nc2ccc3c(c2)OCCO3)c1 (configuration not stated)
 : u	>57
- CC(C(=O)O)N1C(=O)c2cccc3cccc1c23 (configuration not stated)
 : -8%	>57
- CSc1nc(C)cc(NC(N)=O)n1
 : -16%	>57
- Oc1ccc(Cl)c(Cl)c1Cl
 : u	x
- O=C(NC(Cc1ccc2c(c1)OCO2)C(=O)N1CCCC1C(=O)O)c1ccccc1 (configuration not stated)
 : -9%	x
- COC(=O)C1=CN(CCCN2CCCC2=O)C=C(C(=O)OC)C1c1ccccc1C(F)(F)F
 : u	x
- COc1ccc(C(=O)Nc2ccc(N3CCOCC3)cc2)cc1OC
 : 1%	>57
- CCOC(=O)c1c(N)n(Cc2ccccc2)c2nc3ccccc3nc12
 : 23%	>57
- CC1CCCN(c2nc3c(c(=O)n(C)c(=O)n3C)n2Cc2ccccc2)C1 (configuration not stated)
 : 7%	>57
